Compound activity: PubChem BioAssay, Broad Institute
Vaccinia stage: blocks a specific stage of Vaccinia orthopoxvirus infection. Vaccinia-infected cells, mCherry/Venus stage reporter fluorescence; active compounds read low; some inactives read as strong as hits. activity change (mCherry), % (concentration not given with the values). 0.01% of 89,000 active. AID 1053133;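 active = mCherry past -33% and 40 or more points under the early reporter, replicates agreeing; inconclusive = past -33% without that gap or agreement; tested in A549 cells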;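 also: scaled between vehicle wells and reference inhibitor wells; 23 nL library stock went into each well; one replicate is shown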
Vaccinia stage Venus: also measured in Vaccinia stage; calls as there; activity change (Venus), %; measured here: Venus reporter, other viral stage;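 negative = less Venus signal; first of two replicates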
Active calls of the source: *; & = joins results of further samples. This is a subset; rates above refer to the full screens.

For Cc1ccc(S(=O)(=O)Nc2cccc3c2O[C@H](CN(C)Cc2ccc(-c4ccccc4)cc2)[C@@H](C)CN([C@@H](C)CO)C3=O)cc1 the results were Vaccinia stage -15 and Vaccinia stage Venus -3.
For CC(=O)N1[C@@H]2Cn3c(ccc(-c4ccccc4)c3=O)[C@H]1[C@@H](C(=O)N1CCN(C)CC1)[C@@H]2CO the results were Vaccinia stage 3 and Vaccinia stage Venus 6.
`Cc1ccc(S(=O)(=O)N(C)C[C@H]2Oc3c(NC(=O)c4nc5ccccc5s4)cccc3C(=O)N([C@H](C)CO)C[C@@H]2C)cc1` gave Vaccinia stage 11 and Vaccinia stage Venus 12.
For COc1cccc(-c2ccc([C@@H]3[C@@H](C#N)N(C(=O)c4ccccn4)[C@H]3CO)cc2)c1 the results were Vaccinia stage -24 and Vaccinia stage Venus -18.
For C[C@H](CO)N1C[C@H](C)[C@H](CN(C)S(=O)(=O)c2ccc(F)cc2)Oc2c(NC(=O)C3CC3)cccc2C1=O the results were Vaccinia stage -5 and Vaccinia stage Venus -2.
For CCc1cnc(N2[C@@H](C#N)[C@@H](c3ccc(C4=CCCCC4)cc3)[C@@H]2CO)s1 the results were Vaccinia stage -9 and Vaccinia stage Venus -9.
`CCC(=O)Nc1ccc2c(c1)C(=O)N(C)C[C@@H](OC)[C@H](C)CN(C(=O)c1ccncc1)[C@H](C)CO2` gave Vaccinia stage 30 and Vaccinia stage Venus 11.
Screening O=C(Nc1ccccc1)N1CCCCN2[C@@H](CO)[C@@H](c3ccc(C#CC4CC4)cc3)[C@@H]2C1 returned Vaccinia stage inconclusive.
CNC[C@@H]1Oc2ccc(NC(=O)Nc3ccc(OC)cc3)cc2C(=O)N([C@H](C)CO)C[C@@H]1C was read as Vaccinia stage 8 and Vaccinia stage Venus 11.
CC(C)C(=O)Nc1ccc2c(c1)C(=O)N(C)[C@H]1CC[C@H](CC(=O)Nc3cccc(Cl)c3)O[C@@H]1CO2 was read as Vaccinia stage -11 and Vaccinia stage Venus -6.

Six successive compounds already listed, quoted:
For Cc1ccc(S(=O)(=O)Nc2cccc3c2O[C@H](CN(C)Cc2ccc(-c4ccccc4)cc2)[C@@H](C)CN([C@@H](C)CO)C3=O)cc1 the results were Vaccinia stage -15 and Vaccinia stage Venus -3.
For CC(=O)N1[C@@H]2Cn3c(ccc(-c4ccccc4)c3=O)[C@H]1[C@@H](C(=O)N1CCN(C)CC1)[C@@H]2CO the results were Vaccinia stage 3 and Vaccinia stage Venus 6.
`Cc1ccc(S(=O)(=O)N(C)C[C@H]2Oc3c(NC(=O)c4nc5ccccc5s4)cccc3C(=O)N([C@H](C)CO)C[C@@H]2C)cc1` gave Vaccinia stage 11 and Vaccinia stage Venus 12.
For COc1cccc(-c2ccc([C@@H]3[C@@H](C#N)N(C(=O)c4ccccn4)[C@H]3CO)cc2)c1 the results were Vaccinia stage -24 and Vaccinia stage Venus -18.
For C[C@H](CO)N1C[C@H](C)[C@H](CN(C)S(=O)(=O)c2ccc(F)cc2)Oc2c(NC(=O)C3CC3)cccc2C1=O the results were Vaccinia stage -5 and Vaccinia stage Venus -2.
For CCc1cnc(N2[C@@H](C#N)[C@@H](c3ccc(C4=CCCCC4)cc3)[C@@H]2CO)s1 the results were Vaccinia stage -9 and Vaccinia stage Venus -9.

Other results follow.
`COc1ccc(S(=O)(=O)N[C@@H]2C=C[C@@H](CC(=O)NCCc3ccccc3)O[C@@H]2CO)cc1` gave Vaccinia stage -7 and Vaccinia stage Venus -5.
Screening COc1cccc(S(=O)(=O)N2CCCCN3[C@H](C2)[C@H](c2ccc(C#CCC(C)C)cc2)[C@@H]3CO)c1 returned Vaccinia stage inconclusive.
`O=C(Nc1cc(F)ccc1F)N1CCCCN2[C@@H](CO)[C@H](c3ccc(-c4ccncc4)cc3)[C@@H]2C1` gave Vaccinia stage 19 and Vaccinia stage Venus 8.
COc1cccc(-c2ccc([C@@H]3[C@@H](CO)N4C(=O)CN(C(=O)c5cccnc5)C[C@H]34)cc2)c1 was read as Vaccinia stage 21 and Vaccinia stage Venus 22.
COCC#Cc1ccc2c(c1)O[C@H](CN(C)Cc1ccc(F)cc1)[C@@H](C)CN([C@@H](C)CO)S2(=O)=O was read as Vaccinia stage inconclusive.
C[C@H]1CCCCO[C@H](CN(C)C(=O)Cc2ccccc2)[C@@H](C)CN([C@@H](C)CO)C(=O)c2cc(NC(=O)c3ccncc3)ccc2O1 was read as Vaccinia stage 11 and Vaccinia stage Venus 7.
`C[C@@H]1CN([C@H](C)CO)C(=O)c2cc(-c3ccc(C(=O)N(C)C)cc3)cnc2O[C@@H]1CN(C)C(=O)CN(C)C` gave Vaccinia stage 33 and Vaccinia stage Venus 8.
Screening C[C@@H]1CN([C@@H](C)CO)C(=O)c2cc(NC(=O)CCN3CCOCC3)ccc2O[C@H]1CN(C)Cc1ccc(C(F)(F)F)cc1 returned Vaccinia stage -7 and Vaccinia stage Venus -2.
For C[C@H]1CN([C@@H](C)CO)C(=O)c2cc(NC(=O)Nc3cccc4ccccc34)ccc2O[C@H]1CN(C)C(=O)Nc1ccc(C(F)(F)F)cc1 the results were Vaccinia stage 7 and Vaccinia stage Venus 6.
For C[C@@H]1CN([C@@H](C)CO)C(=O)CCCn2cc(nn2)CO[C@H]1CN(C)C(=O)CCC(F)(F)F the results were Vaccinia stage 11&8 and Vaccinia stage Venus 5&7.
For O=C(c1ccccc1)N1C[C@H]2[C@@H](c3ccccc31)[C@@H](CO)N2Cc1ccccn1 the results were Vaccinia stage 10 and Vaccinia stage Venus 5.
`Cc1ccc(S(=O)(=O)N(C)C[C@@H]2Oc3ccc(NS(C)(=O)=O)cc3CC(=O)N([C@@H](C)CO)C[C@@H]2C)cc1` gave Vaccinia stage 7 and Vaccinia stage Venus 3.
`CO[C@H]1CN(C)C(=O)c2cc(NC(=O)C3CCC3)ccc2OC[C@H](C)N(Cc2nccs2)C[C@H]1C` gave Vaccinia stage -15 and Vaccinia stage Venus -13.
For O=C(C[C@@H]1C=C[C@H](NC(=O)c2cccc(F)c2)[C@H](CO)O1)NCCN1CCCC1 the results were Vaccinia stage 2 and Vaccinia stage Venus 9.
C[C@H](CO)N1C[C@H](C)[C@H](CN(C)S(=O)(=O)c2cn(C)cn2)OCCCC[C@H](C)Oc2ccc(NC(=O)Nc3ccc4c(c3)OCO4)cc2C1=O was read as Vaccinia stage 6 and Vaccinia stage Venus -2.
`C[C@@H](NC(=O)C[C@H]1CC[C@H](NC(=O)c2cccnc2)[C@@H](CO)O1)c1ccccc1` gave Vaccinia stage 7 and Vaccinia stage Venus 9.
Screening COc1ccc(C#Cc2ccc([C@H]3[C@@H](CO)N4C(=O)CN(C(=O)Nc5ccccc5F)C[C@@H]34)cc2)cc1 returned Vaccinia stage -1 and Vaccinia stage Venus -9.
Screening C=CCNC(=O)[C@H]1[C@@H]2C(=O)O[C@@H](c3ccccc3)[C@@H](c3ccccc3)N2[C@@H](c2ccc(O)cc2)[C@]12C(=O)Nc1ccc(C#CC3=CCCCC3)cc12 returned Vaccinia stage -9 and Vaccinia stage Venus -8.
Screening CC(C)CC#Cc1ccc([C@@H]2[C@H]3CN(C(=O)c4cccc(F)c4)CC(=O)N3[C@H]2CO)cc1 returned Vaccinia stage inconclusive.
CC(C)c1cn(CC[C@H]2CC[C@@H](NC(=O)C3CCCCC3)[C@H](CO)O2)nn1 was read as Vaccinia stage -10 and Vaccinia stage Venus -3.

Reprinted at random: 2 compounds from above, in no set order.
CC(C)c1cn(CC[C@H]2CC[C@@H](NC(=O)C3CCCCC3)[C@H](CO)O2)nn1 was read as Vaccinia stage -10 and Vaccinia stage Venus -3.
For O=C(C[C@@H]1C=C[C@H](NC(=O)c2cccc(F)c2)[C@H](CO)O1)NCCN1CCCC1 the results were Vaccinia stage 2 and Vaccinia stage Venus 9.

Next part
CNC[C@H]1Oc2cc(C#Cc3ccncc3)ccc2S(=O)(=O)N([C@@H](C)CO)C[C@H]1C was read as Vaccinia stage -9 and Vaccinia stage Venus -5.
`C/C=C/c1ccc([C@H]2[C@@H](CO)N(C(=O)Nc3ccccc3F)[C@H]2C#N)cc1` gave Vaccinia stage -12 and Vaccinia stage Venus -3.
`Cc1ccc(-c2cnc3c(c2)C(=O)N([C@@H](C)CO)C[C@@H](C)[C@H](CN(C)C(=O)c2ccccc2)O3)cc1` gave Vaccinia stage -12 and Vaccinia stage Venus 4.
Screening C[C@@H]1CN([C@H](C)CO)C(=O)c2cccc(NC(=O)CCCCCC(=O)Nc3ccccc3N)c2O[C@@H]1CN(C)Cc1ccc2c(c1)OCO2 returned Vaccinia stage 37 and Vaccinia stage Venus 12.
O=C(C1CCOCC1)N1CC(=O)N2[C@@H](CO)[C@H](c3ccc(C#CC4CCCCC4)cc3)[C@@H]2C1 was read as Vaccinia stage -19 and Vaccinia stage Venus -25.
`C[C@H]1CCCCO[C@H](CN(C)C(=O)Nc2ccc(F)cc2)[C@@H](C)CN([C@@H](C)CO)C(=O)c2cc(NC(=O)Nc3ccc4c(c3)OCO4)ccc2O1` gave Vaccinia stage -14 and Vaccinia stage Venus -9.
For CO[C@@H]1CN(C)C(=O)c2ccc(NC(=O)C3CCCC3)cc2OC[C@H](C)N(CC2CC2)C[C@@H]1C the results were Vaccinia stage 1 and Vaccinia stage Venus 1.
Screening CCCNC(=O)N1C[C@@H](O)COC[C@H]2O[C@H](CC(=O)NCCCN3CCOCC3)CC[C@@H]21 returned Vaccinia stage 14 and Vaccinia stage Venus 11.
Screening CO[C@@H]1CN(C)C(=O)c2ccc(NC(=O)CC(F)(F)F)cc2OC[C@H](C)N(C(C)=O)C[C@@H]1C returned Vaccinia stage 21 and Vaccinia stage Venus 22.
For O=C(Cc1ccncc1)NCC[C@H]1CC[C@H](NC(=O)C2CCCC2)[C@@H](CO)O1 the results were Vaccinia stage 1 and Vaccinia stage Venus 6.
Screening OC[C@@H]1[C@H](c2ccc(-c3ccc(F)cc3)cc2)[C@H]2CN(Cc3ccncc3)CCCCN12 returned Vaccinia stage inconclusive.
O=C(NCC[C@@H]1CC[C@@H](NC(=O)C2CC2)[C@@H](CO)O1)c1cnccn1 was read as Vaccinia stage 4 and Vaccinia stage Venus 0.
`COc1ccc(NC(=O)Nc2cccc3c2O[C@@H](CN(C)S(C)(=O)=O)[C@@H](C)CN([C@@H](C)CO)C3=O)cc1` gave Vaccinia stage 2 and Vaccinia stage Venus 4.
`O=C(C[C@H]1CC[C@H](NC(=O)CC2CC2)[C@@H](CO)O1)NCc1ccc(Cl)cc1` gave Vaccinia stage 3 and Vaccinia stage Venus 5.
Screening CO[C@@H](CN(C)S(=O)(=O)c1ccc(F)cc1)[C@H](C)CN([C@@H](C)CO)S(=O)(=O)c1cccc(Cl)c1 returned Vaccinia stage -25 and Vaccinia stage Venus -22.
`O=C(N[C@H]1CC[C@H](CCNC(=O)C2CCCCC2)O[C@@H]1CO)c1ccncc1` gave Vaccinia stage 10 and Vaccinia stage Venus 5.
`O=C(NCc1ccccc1)C1=C[C@@H](c2csc3ccccc23)C[C@@H](OCc2ccc(CO)cc2)O1` gave Vaccinia stage inconclusive.
`COc1ccc(NC(=O)Nc2cccc3c2O[C@@H](CN(C)CC2CCCCC2)[C@H](C)CN([C@H](C)CO)C3=O)cc1` gave Vaccinia stage 10 and Vaccinia stage Venus 7.
Screening COc1ccc(NC(=O)Nc2ccc3c(c2)C(=O)N([C@H](C)CO)C[C@H](C)[C@@H](CN(C)S(=O)(=O)c2ccc(Cl)cc2)OCCCC[C@H](C)O3)cc1 returned Vaccinia stage 7 and Vaccinia stage Venus 7.
C[C@@H]1CN([C@H](C)CO)C(=O)Cc2cc(NC(=O)Cn3cnnn3)ccc2O[C@@H]1CN(C)S(=O)(=O)c1cccs1 was read as Vaccinia stage 10 and Vaccinia stage Venus 14.
Screening CCOC(=O)N(C)C[C@H]1OCc2ccccc2-c2ccccc2C(=O)N([C@H](C)CO)C[C@@H]1C returned Vaccinia stage 27 and Vaccinia stage Venus 31.
`O=C(CC(F)(F)F)N1C[C@H]2[C@@H](c3ccccc31)[C@H](CO)N2C(=O)C1CCCCC1` gave Vaccinia stage -9 and Vaccinia stage Venus -9.
CO[C@@H](CN(C)C(=O)Nc1ccc(C(F)(F)F)cc1)[C@@H](C)CN(Cc1ccccc1Cl)[C@@H](C)CO was read as Vaccinia stage inconclusive.
For C[C@H](CO)N1C[C@H](C)[C@H](CN(C)C(=O)Nc2ccc(C(F)(F)F)cc2)OCCCC[C@H](C)Oc2ccc(NC(=O)Nc3cccc4ccccc34)cc2C1=O the results were Vaccinia stage 2 and Vaccinia stage Venus -3.
N#C[C@@H]1[C@@H](c2ccccc2C2=CCCCC2)[C@H](CO)N1C(=O)CN1CCOCC1 was read as Vaccinia stage -2 and Vaccinia stage Venus -2.
`C[C@H]1CN([C@@H](C)CO)S(=O)(=O)c2ccc(C#Cc3ccncc3)cc2O[C@H]1CN(C)S(=O)(=O)c1ccc(F)cc1` gave Vaccinia stage -31 and Vaccinia stage Venus -15.
`Cc1noc(C)c1NC(=O)NCC[C@@H]1CC[C@@H](NC(=O)c2ccncc2)[C@@H](CO)O1` gave Vaccinia stage -3 and Vaccinia stage Venus -6.
For O=C(NC1CCCCC1)N[C@H]1CC[C@@H](CCNS(=O)(=O)c2ccc(F)cc2)O[C@H]1CO the results were Vaccinia stage -10 and Vaccinia stage Venus 0.
`COc1ccc(COCC23N=C4SCCCN4[C@H](c4ccccc4O2)[C@H]3COC(=O)c2ccccc2)cc1` gave Vaccinia stage -14 and Vaccinia stage Venus -17.
For O=C(C[C@@H]1C=C[C@@H](NC(=O)Cc2ccccn2)[C@@H](CO)O1)NCCc1ccccc1 the results were Vaccinia stage 7 and Vaccinia stage Venus 2.
`O=S(=O)(N[C@H]1CC[C@@H](CCNS(=O)(=O)c2ccccc2Cl)O[C@H]1CO)c1ccccc1` gave Vaccinia stage 0 and Vaccinia stage Venus 5.
`Cc1noc(C)c1NC(=O)N(C)C[C@H]1OCCCC[C@H](C)Oc2ccc(NC(=O)c3ccccc3)cc2C(=O)N([C@H](C)CO)C[C@@H]1C` gave Vaccinia stage 26 and Vaccinia stage Venus 10.
